Source: PubChem (National Center for Advancing Translational Sciences (NCATS))
Vaccinia Venus = inhibitors of vaccinia virus (Venus reporter); Vaccinia virus Venus reporter expression, fluorescence; Potency, µM (highest dose often 36.5 µM), for the others: at the top dose activity change, negative = inhibition, most hits filed as inhibitors; 330,000 tested, 0.46% active; AID 720580; active means well fitted inhibition curve with a large enough effect; inconclusive means small, poorly fitted or top-dose-only effect; inactive means no such curve, though single readings can be large or run the other way; tested in A549 cells; also: nearly all actives have a fitted effect of over 30% in size; inactives centre near -10
VACV mCherry inh = inhibitors of vaccinia virus infection (mCherry reporter signal). Vaccinia virus mCherry reporter infection, fluorescence; about a quarter of the inactives have no number. Potency, µM (doses to about 36.5 µM), for inactives: top-dose activity change, negative = inhibition, hits mostly inhibitors. 310,000 tested, 0.63% active; active = well fitted inhibition curve with a large enough effect; inconclusive = small, poorly fitted or top-dose-only effect; inactive = no such curve, though single readings can be large or run the other way; tested in A549 cells; also: nearly all actives have a fitted effect of over 35% in size; inactives centre near -10
* marks the source's active call; other numbers are inactive results; i = inactive; u = inconclusive; x = no result given; & = joins results of further samples; [ ] = dose if it differs, or a comment. % is scaled to controls: 0 for no effect and ±100 for the full control effect; potency is read from the fitted curve at half-maximal effect. An unsorted share of the library; 0.87% or so of the library scored in one or more.

Results follow in this order: VACV mCherry inh	Vaccinia Venus
Cc1onc(-c2ccc(Cl)cc2)c1-c1ccnn1S(=O)(=O)c1cccc(C(F)(F)F)c1
    -13%[7.34 µM]	-4%[7.34 µM]
O=C(/C=C/c1ccccc1)NCCSCc1ccccc1Cl
    x	-15%
O=C(c1ccccc1F)N1CCCC(C(=O)N2CCc3ccccc3C2)C1 (centres undefined)
    i	-12%
COc1cccc(Oc2cc(NN3CCCCC3)c([N+](=O)[O-])cc2[N+](=O)[O-])c1OC
    u	u
COc1ccc(CNC(=O)COC(=O)c2nc3nc(C)cc(C)n3n2)cc1
    -18%	-13%
Cc1ccc(C=NCc2ccncc2)c(O)c1
    -7%	-1%
CC(C)(C)Sc1ccc([N+](=O)[O-])cc1C(=O)Nc1ccncc1
    -1%[7.34 µM]	-7%[7.34 µM]
COc1ccc(CC(=O)NNc2ncnc3c2cnn3-c2ccc(C)cc2)cc1OC
    -10%	-6%
Cc1ccc(S(=O)(=O)NNC(=O)CCC(=O)Nc2ccccc2)cc1
    x	u
CCc1ccc(NC(=O)CSc2n[nH]c(=O)n2C2CC2)cc1
    -3%	-15%
Cc1ccc(S(=O)(=O)NC(C)C(c2cccs2)N2CCN(c3ccccc3)CC2)cc1 (centres undefined)
    -16%	-18%
O=C(CCCCCN1C(=O)c2ccccc2C1=O)NCc1ccccn1
    x	u
Cc1cccc(NC(=O)CC2C(=O)NCCN2C(=S)Nc2ccccc2)c1 (centres undefined)
    -24%	-23%
O=c1oc2cc(O)ccc2cc1-c1nc(-c2ccc(Cl)c(Cl)c2)cs1
    1%	0%
CC1=C(C(=O)Nc2cccc(Cl)c2C)C2(CCCCCC2)OC1=O
    2%	1%
Cc1nn(-c2ccccc2)nc1C(=O)Nc1ccc2c(c1)OCCO2
    -18%	0%
CC1=Nc2cc(C(=O)NCCCOC(C)C)ccc2Sc2ccc(C)cc21
    u	u
O=C(NC(=S)NCC1CCCO1)c1cccs1 (centres undefined)
    -8%	-9%
CCOC(=O)c1c(C)oc2nc(C)nc(NCCc3ccc(S(N)(=O)=O)cc3)c12
    -15%	-11%
CC(C)Cc1nnc(NC(=O)CCC(=O)Nc2ccc(Cl)cc2)s1
    i	-18%
CC1(OC(=O)C2CCCC2)C(=O)C=C2C=C(c3ccsc3)N(CCc3ccccn3)C=C2C1=O (centres undefined)
    -2%	-3%
CC(=O)N1CCN(c2ccc(NC(=O)c3ccc(C(C)(C)C)cc3)cc2)CC1
    -20%	u
Cc1nnsc1NC(=O)OCc1ccc(C(F)(F)F)cc1
    x	-22%
CC(C)(CNCc1ccccc1)NS(=O)(=O)c1ccccc1
    -2%	-11%
O=C(NC1CC1)C1CC(=O)N(C2CCCCC2)C1 (centres undefined)
    -17%	-13%
COc1ccc(N2CC(C(=O)Nc3c4c(nn3-c3ccccc3)CS(=O)(=O)C4)CC2=O)cc1 (centres undefined)
    i	-16%
[O-]/[N+](=C\C=C\c1ccccc1)c1ccccc1
    -11%	-4%
O=C(CSc1nc2c(c(=O)[nH]1)CN(Cc1ccc3c(c1)OCO3)CC2)Nc1cccc(Cl)c1
    -17%	-7%
Cc1ccc([C@@H]2CC(=O)[C@@H]3CN(S(=O)(=O)c4ccc(C)cc4)[C@H](c4ccccc4F)C[C@@H]3N2S(=O)(=O)c2ccc(C)cc2)cc1
    -6%	-7%
CC1CCN(c2ccc(-c3cccc(NC(=O)c4ccco4)c3)nn2)CC1
    -28%	-17%
CN(c1ccccc1C(=O)Nc1cccc(C(F)(F)F)c1)S(C)(=O)=O
    -16%	-13%
CCC(c1nnnn1C1CCCC1)N1CCN(Cc2ccccc2)CC1 (centres undefined)
    -13%	-7%
CN(CC(=O)OCC(=O)c1c(N)n(C)c(=O)n(C)c1=O)S(=O)(=O)c1ccc(Cl)cc1
    -4%	-10%
CCOc1ccccc1NC(=O)NC1(C(=O)N2CCN3CCCC3C2)CCCCC1 (centres undefined)
    -18%	-18%
CC(C)Cc1nnc(NC(=O)CCC(=O)NC2CCCCC2)s1
    -19%	-11%
Cc1csc(/C(=N\O)c2csc(C)n2)n1
    -1%	-21%
Cc1ccc(C)c(C(=O)COc2ncnc3ccccc23)c1
    -7%	-14%
COc1ccc2c(CNCCc3cccs3)c(C(=O)O)n(Cc3ccccc3)c2c1
    -11%	-8%
Cc1ccc(NC(=O)C2CCCN(S(=O)(=O)c3cccs3)C2)c(C)c1 (centres undefined)
    -1%	-2%
CCC1CCCCN1CCNC(=O)C1CCCN(S(=O)(=O)c2cccc3nsnc23)C1 (centres undefined)
    2%[7.34 µM]	12%[7.34 µM]
Cc1ccc(NC(=O)CCCn2c(=O)[nH]c3ccsc3c2=O)cc1
    -28%	-15%
O=C(c1ccc(F)cc1)N1CCN(CCc2ccncc2)CC1
    -21%	-6%
CCc1ccc(N(C(=O)c2csnn2)C(C(=O)NC(C)(C)C)c2ccncc2)cc1 (centres undefined)
    i	-12%
COc1ccc(S(=O)(=O)N(CC(=O)Nc2cccc(C(F)(F)F)c2)c2ccc(C)cc2)cc1
    -19%	u
CCCS(=O)(=O)NC(=O)C1(C)CCCN(C(=O)c2cc(-c3cccs3)oc2C)C1 (centres undefined)
    30%	-1%
CC1CCN(C(=O)c2ccccc2NC(=O)c2nsc3ccccc23)CC1
    i	1%
Cc1ccc(S(=O)(=O)N2CCC(C(=O)NCc3ccccc3CN3CCCC3)CC2)cc1C
    -2%	-26%
Cc1nn(C)c(C)c1NC(=O)COc1ccc(F)cc1Br
    -23%	-13%
Cc1nc2sccn2c(=O)c1S(=O)(=O)NCc1ccccc1
    -2%	-17%&-14%
COc1ccc(Cn2nnc3ccccc32)cc1
    i	-6%
O=C(O)c1cc(NS(=O)(=O)c2cccs2)cc(NS(=O)(=O)c2cccs2)c1
    -9%	-19%
COc1ccc(-c2noc(CN3CCN(c4ccccc4OC)CC3)n2)cc1OC
    -11%	3%
NC(=O)C1CCN(C2OC(=O)c3ccccc32)CC1 (centres undefined)
    x	-5%
Cc1ccc(S(=O)(=O)N2CCN(C(=O)NCc3ccc(F)cc3)CC2)c(C)c1
    -10%	-6%
CN(C(=O)CSc1nnc(Cc2ccccc2F)n1N)C1CCS(=O)(=O)C1 (centres undefined)
    -10%	-3%
O=C(CC1N=C2c3ccccc3N=C(SCc3ccc(Cl)cc3)N2C1=O)NC1CCCCC1 (centres undefined)
    -9%	-10%
CSc1ncnc2c1ncn2CCCNCC1CCCO1 (centres undefined)
    -21%	-12%
CS(=O)(=O)N(CC(=O)NCC1CCCO1)c1cc(Cl)ccc1Cl (centres undefined)
    x	-4%
CCOc1ccc(C2C=C(c3ccc(F)cc3)Nc3ncnn32)cc1 (centres undefined)
    -12%	-23%
CC(=O)Nc1ccccc1-c1nc(CNC(=O)c2ccc(-n3cccn3)cc2)c(C)o1
    -13%	1%

The list goes on.
Results follow in this order: VACV mCherry inh	Vaccinia Venus
CC(=O)c1ccc(N2CCN(C(=O)[C@H](C)NC(=O)c3ccccc3Cl)CC2)cc1
    1%	6%
Cc1oc(-c2ccccc2F)nc1CN1CCC(C(=O)NC2CCCCCCC2)CC1
    -22%	-9%
Cc1ccc(N=C2NC(=O)/C(=C/c3cccs3)S2)cc1C
    i	-3%
CN(C)C(=O)C1=NOC2(C1)C(=O)Nc1ccccc12 (centres undefined)
    i	5%
CCOC(=O)c1c(-c2ccc(OC)cc2)csc1NC(=O)CCN1CCOCC1
    -10%	-15%
CC(C)c1cc(C(=O)N2CCCC(Nc3ccc(F)c(F)c3)C2)nc(N)n1 (centres undefined)
    -17%	-15%
CCOC(=O)CN(C(=O)CNC(=O)c1ccco1)C(C(=O)NC1CCCCC1)c1cccnc1 (centres undefined)
    i	1%
CC1(C)CC(=O)C2=C(C1)Nc1cc(C(=O)c3ccccc3)ccc1NC2c1ccccn1 (centres undefined)
    -15%	-9%
CC(C)c1ccc(NC(=O)C2CC(=O)N=C(N)S2)cc1 (centres undefined)
    -2%	-18%
CCOc1ccc(S(=O)(=O)N2CCN(c3ccccc3OC)CC2)c2cccnc12
    u	u
O=C(O)/C=C/c1cn(-c2ccccc2)nc1-c1ccc(-c2ccc([N+](=O)[O-])cc2)o1
    i	-6%
CCN(CC)c1ccc(CNc2nc3ccccc3n2CCN2CCCCC2)cc1
    u	u
CCO/C=C/C(=O)N(C)CCC#N
    x	-10%
Cc1ccc(S(=O)(=O)Cc2cc(F)c([N+](=O)[O-])cc2[N+](=O)[O-])cc1
    2.8µM*	u
CC(C)c1noc(-c2ccccc2OCC(=O)Nc2cccc([N+](=O)[O-])c2)n1
    0%	0%
CCN1CCN(S(=O)(=O)c2ccc3[nH]c(=O)oc3c2)CC1
    -12%	5%
CCNC(=O)C1CCCN(C(=O)c2ccccc2)CC1 (centres undefined)
    18%	26%
N#Cc1nc(COc2cccc(Cl)c2)oc1NCc1ccco1
    u	-19%
Cc1nn(C)c(C(=O)Nc2ccc(Cl)c([N+](=O)[O-])c2)c1Cl
    i	-8%
Cc1ccc(-c2csc3nc(CSc4nnc(-c5ccc(Cl)cc5)n4C)[nH]c(=O)c23)cc1
    -11%	-11%
O=C(O)c1cccc(NC(=O)c2cccc(S(=O)(=O)Nc3cccc(F)c3)c2)c1
    -8%	-1%
C=CCSc1nnc2c(n1)OC=Nc1ccc(Br)cc1-2
    x	6%
Cc1ccc(N2CCN(C(=O)c3cccn4c(=O)c5ccc(Cl)cc5nc34)CC2C)cc1 (centres undefined)
    -13%	0%
Cc1nn(CC(=O)O)c(C)c1[N+](=O)[O-]
    -11%	-1%
COC(=O)c1ccc2nc(-c3ccc(C)cc3)c(Cc3ccccc3OC)n2c1
    -13%	-3%
O=C(Nc1ccc(O)cc1)c1cc(S(=O)(=O)N2CCCC2)ccc1Cl
    -18%	-17%
Cc1ccc(OCc2ccc(C(=O)Nc3nc4ccccc4n3Cc3ccccc3)o2)c([N+](=O)[O-])c1
    -1%	-15%
Cc1cc(S(=O)(=O)NCc2nc(N3CCCC3)c3cc(Cl)ccc3n2)c(C)s1
    -22%	-11%
CCSc1nnc(NC(=O)CSc2nnc(CNC(=O)c3ccc(OC)cc3)o2)s1
    i	-12%
Cc1cccc(OCCCC(=O)Nc2sc3c(c2C(N)=O)CCC(C)C3)c1 (centres undefined)
    1%	2%

Gathered by group: the compounds so far with bromine (2)
Results follow in this order: VACV mCherry inh	Vaccinia Venus
Cc1nn(C)c(C)c1NC(=O)COc1ccc(F)cc1Br
    -23%	-13%
C=CCSc1nnc2c(n1)OC=Nc1ccc(Br)cc1-2
    x	6%

Additional compounds
Results follow in this order: VACV mCherry inh	Vaccinia Venus
CC(C)(C)n1nnnc1CN1CCSCC1
    -13%	-13%
COc1ccc(OC)c(CNC(=O)c2ccc(C)c(NC(=O)C3=C(C)OCCS3)c2)c1
    -25%[7.34 µM]	-18%[7.34 µM]
CC(=O)C1CCC2C3CCC4CC(=O)CCC4(C)C3C(C)(O)CC12C (centres undefined)
    i	-19%
CCCC12CN3CC(CCC)(CN(C1)C3c1ccc(OC(C)C)cc1)C2=O (centres undefined)
    -7%	11%
CC(=O)Nc1nonc1-c1nnc(SCC(=O)Nc2cc(Cl)ccc2C)n1C
    -5%	-5%
COc1cc(NS(=O)(=O)c2cc3[nH]c(=O)c(=O)[nH]c3cc2C)cc(OC)c1OC
    -10%	-5%
COc1ccc(NC(=O)CSc2nc(-c3cc(OC)c(OC)c(OC)c3)[nH]c2-c2ccc(F)cc2)cc1
    -20%	-24%
CCCCC(C(=O)NC(=O)NCc1ccccc1)N1C(=O)c2ccccc2C1=O (centres undefined)
    1%	-6%
CSc1ccc(CCNC(=O)c2ccc3c(Cl)c4c(nc3c2)CCCC4)cc1
    u	u
O=C(CC(c1ccc(F)cc1)c1ccco1)N1CCOCC1 (centres undefined)
    i	-13%
COc1ccc(-n2cnnc2SCC(=O)NCc2cccs2)cc1
    x	-6%
Cc1ccc(S(=O)(=O)N2CCCC(NC(=O)N3CCN(c4ccccc4)CC3)C2)cc1 (centres undefined)
    13%	24%
Cc1ccc(-c2cc(C(=O)OCC(=O)N(C)c3c(N)n(Cc4ccccc4)c(=O)[nH]c3=O)c3ccccc3n2)o1
    -19%	-8%
Cc1ccc(C(OC(=O)c2ccco2)C(=O)NCc2cccs2)cc1 (centres undefined)
    -14%	-7%
C[C@@H]1C[C@H](O)c2cc(Cl)ccc2N1
    x	-2%
C=C(C)C1CC=C(C)/C(=N\NC(=S)Nc2ccc(C)cc2)C1 (centres undefined)
    -11%	-28%
CCOc1ccc(OCC)c(NC(=O)c2[nH]c(C)c(C(C)=O)c2C)c1
    -11%	-2%
Cn1c(=O)c2c(n3cnnc13)-c1ccccc1CC21CCCC1
    -3%	-12%
Cn1c(=O)n(C)c2cc(N3CCCC3)c(NC(=O)Nc3ccccc3)cc21
    u	u
COC(=O)c1ccccc1NC(=O)CN1CCC(C)CC1
    -12%	-11%

Grouped by structure: the entries above containing a cyano group
Results follow in this order: VACV mCherry inh	Vaccinia Venus
CCO/C=C/C(=O)N(C)CCC#N
    x	-10%
N#Cc1nc(COc2cccc(Cl)c2)oc1NCc1ccco1
    u	-19%
